# gsp antagonist – qHTS for Antagonists of gsp, the Etiologic Mutation Responsible for Fibrous Dysplasia/McCune-Albright Syndrome: qHTS; Potency, µM (titrated, usually from 76.9 µM), inactives show at the highest dose activity change, negative = inhibition, usual class: inhibitors; actives 0.4% (n = 340,000); AID 624288, 2012; gsp-mutant cells, cAMP HTRF, 30 min; control for the full effect not named in the record; active = falling curve of any shape with a large fitted effect; inconclusive = falling curve, mostly with a smaller effect; inactive = flat or rising curve; cell line not stated here;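 note: intracellular cAMP measured with PDE inhibitor Ro 20-1724 present during compound exposure; potency is the fitted concentration of half-maximal effect; % is set by controls: 0 for no effect and ±100 for the full control effect; nearly all actives have a fitted effect of over 65% in size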
#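 Measurement of cellular cAMP by homogeneous time-resolved fluorescence following a 30 min compound exposure at 37C. The PDE inhibitor […] was present throughout; the assay buffer was DPBS with 0.05% BSA and 0.005% Tween 20.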
# ClpP mod – qHTS Assay for Activators of ClpP; purified B. subtilis ClpP, FRET peptide cleavage, 20 min; Potency, µM (doses to about 57.5 µM), for the others: top-dose activity change, negative = active; actives 1.9% (n = 340,000); active = well fitted falling curve with a large enough effect; inconclusive = small, poorly fitted or top-dose-only effect; inactive = no such curve, though single readings can be large or run the other way; note: potency is the fitted concentration of half-maximal effect; the source files actives as falling curves though it sought activators and does not explain the sign; nearly all actives have a fitted effect of over 65% in size; many hits overshoot -100%
# Target sequence (P80244 whole entry, looked up): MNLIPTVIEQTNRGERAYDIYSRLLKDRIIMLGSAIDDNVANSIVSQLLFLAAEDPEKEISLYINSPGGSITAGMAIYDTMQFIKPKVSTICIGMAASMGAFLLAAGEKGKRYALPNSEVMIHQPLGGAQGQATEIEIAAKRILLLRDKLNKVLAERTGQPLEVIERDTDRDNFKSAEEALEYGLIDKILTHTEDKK
#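 FRET quenching reversal measured ClpP activation: 10 microg/mL B. subtilis ClpP at pH 8 with the FRET-FV decapeptide, read at 430 nm after 320 nm excitation. The 20-min minus 0-min signal was scaled between DMSO/no-enzyme wells and ADEP (5.8 microM final).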
# TRPML1 blocker – qHTS for Inhibitors of the Human Mucolipin Transient Receptor Potential 1 (TRPML1); actives 0.02% (n = 390,000); AID 624415, 2012; activity change, negative = inhibition, % (test concentration not listed); TRPML1-inducible cells, Ca2+ dye fluorescence, FDSS; active compounds read low; inhibition of EC80 agonist-evoked calcium signal; Mucolipin-1 (Homo sapiens), Q9GZU1; in the data active means activity change below about -50%; inconclusive means about -30% to -50%; inactive means above about -30%;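 note: stimulus is agonist 54-4 at its EC80 concentration; % is set by controls: 0 for no effect and ±100 for the full control effect; compound concentration not given in the record; the text of the record puts the active cut at -80%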
# Target sequence (Q9GZU1 whole entry, looked up): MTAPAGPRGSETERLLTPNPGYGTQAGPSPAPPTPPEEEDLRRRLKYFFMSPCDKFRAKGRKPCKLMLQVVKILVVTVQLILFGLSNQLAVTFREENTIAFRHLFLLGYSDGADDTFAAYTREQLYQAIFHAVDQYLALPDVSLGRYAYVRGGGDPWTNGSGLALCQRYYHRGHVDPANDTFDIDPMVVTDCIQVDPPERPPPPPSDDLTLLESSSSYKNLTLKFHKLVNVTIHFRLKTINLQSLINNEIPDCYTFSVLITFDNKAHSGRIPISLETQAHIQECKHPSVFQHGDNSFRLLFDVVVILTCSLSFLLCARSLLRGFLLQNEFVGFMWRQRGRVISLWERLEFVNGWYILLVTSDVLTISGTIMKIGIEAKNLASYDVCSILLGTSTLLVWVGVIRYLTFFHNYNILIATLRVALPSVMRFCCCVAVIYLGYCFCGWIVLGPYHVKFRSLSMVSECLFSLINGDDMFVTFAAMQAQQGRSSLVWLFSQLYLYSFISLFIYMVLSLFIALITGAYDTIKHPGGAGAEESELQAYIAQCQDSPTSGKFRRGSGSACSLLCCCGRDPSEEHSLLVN
#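 Tet-induced TRPML1-DL cells loaded with Ca8 no-wash calcium dye were read kinetically on FDSS. Compound addition was followed by EC80 agonist 54-4 (4 uM final); inhibition was read over 110 s.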
# Sfp PPTase inh – qHTS Assay for Inhibitors of Bacillus subtilis Sfp phosphopantetheinyl transferase (PPTase); 4'-phosphopantetheinyl transferase ffp (Bacillus subtilis), Q9F4F7; Biochemical Sfp PPTase activity, qHTS; actives 3.5% (n = 310,000); Potency, µM, for the others: max response, negative = inhibition, most hits filed as inhibitors; AID 1490, 2009; active = well fitted inhibition curve with a large enough effect; inconclusive = small, poorly fitted or top-dose-only effect, or another doubt; inactive = no such curve, though single readings can be large or run the other way;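 note: the enzyme is Sfp with the accession as filed and its product quenches rhodamine fluorescence; potency is the fitted concentration of half-maximal effect; 0% = enzyme reaction without inhibitor and -100% = no enzyme wells; top concentration of the series not given in the record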
#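 Step 1, compound plus 15 nM Sfp-PPTase, 15 min, room temperature. Step 2, add rhodamine-CoA (5 uM) and BHQ-2-YbbR (12.5 uM). Step 3, read 525/598 nm fluorescence at 0 and 30 min.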
# Menin MLL FP FL – qHTS Assay for Inhibitors Targeting the Menin-MLL Interaction in MLL Related Leukemias: Competition With Fluorescein Labeled MLL-derived Peptide. Fluorescence polarization, fluorescein-MLL peptide displacement from menin. FP activity change, % at 61.4 µM. 290,000 tested, under 10 active; inconclusive = falling polarisation curve, or a change in total fluorescence; inactive = total fluorescence flat and polarisation flat or rising; no compound was filed as active; the % refers to the polarisation; negative = inhibition;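 note: % of control where 0% means no effect; inhibitors lower the polarisation; unlabelled MLL peptide was the positive control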
# TRPV1 potentiator – HTS Assay for Compounds that Act as Potentiators of the Vanilloid Receptor 1. actives 0.02% (n = 320,000). potentiation, % at 8.33 µM. TRPV1-expressing cells, Fluo-8 calcium influx, capsaicin EC20 potentiation; host cell line not named in the record; control for the full effect not named in the record; active means potentiation above 80%; inconclusive means 30% to 80%; inactive means below 30%; note: 0% is about no effect
#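 TRPV1-expressing cells were cultured overnight at 35.5C and loaded with Fluo-8 calcium dye for 40 to 90 min at room temperature. After a 10 s baseline, compound was added and calcium influx was read kinetically for 3 min (ex 480/em 520 nm).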
# gsp ag – qHTS for Agonist of gsp, the Etiologic Mutation Responsible for Fibrous Dysplasia/McCune-Albright Syndrome: qHTS | gsp mutant cells, cAMP HTRF, 30 min; control for the full effect not named in the record | Potency, µM (doses to about 76.9 µM), inactives show at the top dose activation (cAMP increase), actives largely listed as activators | actives 0.13% (n = 340,000) | AID 624287, 2012; active = well fitted activation curve with a large enough effect; inconclusive = small, poorly fitted or top-dose-only effect, or another doubt; inactive = no such curve, though single readings can be large or run the other way; cell line not stated here;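 note: phosphodiesterase inhibitor Ro 20-1724 added with compounds to block cAMP breakdown; potency is the fitted concentration of half-maximal effect; nearly all actives have a fitted effect of over 60% in size; about a fifth of the inactives were tested at one dose only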
#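 Cells stably selected in G418 were plated at 2000/well, grown 16-24 hr, then given compounds in DMSO with the PDE inhibitor […] (300 uM solution added) for 30 min at 37C; cAMP was read by HTRF.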
# * = called active by the depositor; ? = inconclusive; . = no result given; [ ] = dose if it differs, or a comment.
SMILES,gsp antagonist,ClpP mod,TRPML1 blocker,Sfp PPTase inh,Menin MLL FP FL,TRPV1 potentiator,gsp ag
Cc1ccc(S(=O)(=O)N2CCC(C(=O)NCc3ccccc3CN3CCCC3)CC2)cc1C,5%,1.9%,19,.,.,-7,20%
CCOc1ccccc1NC(=O)NC1(C(=O)N2CCN3CCCC3C2)CCCCC1 (stereo not drawn),0%,-5.4%,-8,4%,-7.5,7,-2%
CN(CC(=O)OCC(=O)c1c(N)n(C)c(=O)n(C)c1=O)S(=O)(=O)c1ccc(Cl)cc1,-10%,.,7,31%[activator],1.5,3,17%
CCC(c1nnnn1C1CCCC1)N1CCN(Cc2ccccc2)CC1 (stereo not drawn),-4%,-0.9%,-13,26%,-0.4,12,12%
CN(c1ccccc1C(=O)Nc1cccc(C(F)(F)F)c1)S(C)(=O)=O,5%,-1.2%,5,5%,-0.2,3,-12%
COc1ccc(/C(O)=C2/C(=O)C(=O)N(CCCN3CCOCC3)C2c2ccc(OC)cc2)cc1 (stereo not drawn),6%,2.5%,2,-2%,0.1,-6,?
CC1CCN(c2ccc(-c3cccc(NC(=O)c4ccco4)c3)nn2)CC1,?,.,20,.,.,-13,23%[15.4 µM]
CC(=O)c1ccc(NS(=O)(=O)c2cccc(C)c2)cc1,-15%,-17%,2,14%,4.6,-5,-3%
[O-]/[N+](=C\C=C\c1ccccc1)c1ccccc1,9%,0.1%,-7,4%,4.2,-22,?
COc1ccccc1N1CCN(C(=O)C2C3C=CC4(CN(Cc5ccccc5Cl)C(=O)C24)O3)CC1 (stereo not drawn),-15%,-0.7%,1,16%,-0.4,-6,-24%
COc1ccc(N2CC(C(=O)Nc3c4c(nn3-c3ccccc3)CS(=O)(=O)C4)CC2=O)cc1 (stereo not drawn),-2%,-2.1%,0,14%,.,-8,4%[15.4 µM]
COc1ccc2c(C)nc(Nc3nc(C)c(C)c(=O)[nH]3)nc2c1,8%,-16%,14,8%,-1.2,26,35%
O=c1ccc(-c2ccc(S(=O)(=O)Nc3cccc(Br)c3)o2)n[nH]1,-14%,0.2%,2,8%,-12,-13,18%
Cc1ccc(C)c(C(=O)COc2ncnc3ccccc23)c1,-8%,-0.5%,0,2%,-1.7,5,-17%[15.4 µM]
CC(C)Cc1nnc(NC(=O)CCC(=O)NC2CCCCC2)s1,11%,-0.1%,9,8%,.,7,-31%[inhibitor]
Cc1csc(/C(=N\O)c2csc(C)n2)n1,5%,-2.9%,-2,-10%,1.5,-12,4%
CCOc1ccc(S(=O)(=O)N2CCN(c3ccccc3OC)CC2)c2cccnc12,-35%,-0.6%,15,9%,6.1,1,8%
CC(C)c1ccc(NC(=O)C2CC(=O)N=C(N)S2)cc1 (stereo not drawn),7%,-0.7%,-7,2%,4.2,0,16%
CC1(C)CC(=O)C2=C(C1)Nc1cc(C(=O)c3ccccc3)ccc1NC2c1ccccn1 (stereo not drawn),-15%,-1.2%,19,-14%,-0.1,9,-27%
Cc1ccc(-c2csc3nc(CSc4nnc(-c5ccc(Cl)cc5)n4C)[nH]c(=O)c23)cc1,4%,0.5%,32,14%,2.7,-19,14%
Cc1nn(C)c(C(=O)Nc2ccc(Cl)c([N+](=O)[O-])c2)c1Cl,10%,-1.3%,2,3%,2.3,-16,-8%
COCc1cc(C)nc2sc(C(=O)Nc3cccc(OC)c3)c(N)c12,-14%,-5.5%,2,0%,-2.3,-16,19%
CCN1CCN(S(=O)(=O)c2ccc3[nH]c(=O)oc3c2)CC1,-6%,-1.2%,21,15%,0.5,1,?
N#Cc1nc(COc2cccc(Cl)c2)oc1NCc1ccco1,-4%,-2.4%,-5,?,4.0,.,?
CCO/C=C/C(=O)N(C)CCC#N,6%,-1.0%,5,6%,0.5,17,-23%

# (next part)
SMILES,gsp antagonist,ClpP mod,TRPML1 blocker,Sfp PPTase inh,Menin MLL FP FL,TRPV1 potentiator,gsp ag
CCN(CC)c1ccc(CNc2nc3ccccc3n2CCN2CCCCC2)cc1,-29%,.,51,3%,1.4,-22,-27%
Cc1ccc(S(=O)(=O)Cc2cc(F)c([N+](=O)[O-])cc2[N+](=O)[O-])cc1,-21%,0.8%,43,-2%,1.9,-5,-39%[inhibitor]
CCCCn1nc(C(=O)Nc2c(C)n(C)n(-c3ccccc3)c2=O)c2ccccc2c1=O,-14%,-0.4%,24,.,.,3,-17%
O=C(O)/C=C/c1cn(-c2ccccc2)nc1-c1ccc(-c2ccc([N+](=O)[O-])cc2)o1,?,.,15,25µM*,?,20,7%[15.4 µM]
O=C(COC(=O)c1cccnc1Cl)c1ccc(Cl)cc1Cl,-18%,0.1%,16,?,1.1,-11,-38%[inhibitor]
Cc1oc(-c2ccccc2F)nc1CN1CCC(C(=O)NC2CCCCCCC2)CC1,4%,0.9%,4,1%,5.9,14,-92%[inhibitor]
CC(=O)c1ccc(N2CCN(C(=O)[C@H](C)NC(=O)c3ccccc3Cl)CC2)cc1,-14%,.,0,16%,3.1,1,21%
CCOc1ccc(C2C=C(c3ccc(F)cc3)Nc3ncnn32)cc1 (stereo not drawn),6%,-25%,36,-7%,?,-5,-15%
CS(=O)(=O)N(CC(=O)NCC1CCCO1)c1cc(Cl)ccc1Cl (stereo not drawn),-9%,-3.1%,31,3%,4.2,8,11%
Cc1ccccc1C(=O)N1CCC(C(=O)Nc2ccc(C(C)C)cc2)CC1,-20%,-0.1%,-4,6%,.,7,?
CN(C(=O)CSc1nnc(Cc2ccccc2F)n1N)C1CCS(=O)(=O)C1 (stereo not drawn),6%,-0.3%,-7,17%,2.0,0,15%
Cc1ccc(S(=O)(=O)N2CCN(C(=O)NCc3ccc(F)cc3)CC2)c(C)c1,-3%,.,2,2%,-2.2,-7,-1%
S=c1nc[nH]c2c1cnn2-c1ccccc1,20%,-0.1%,-22,18µM*,1.9,23,?
CC(CNC(=O)CN1C(=O)NC2(CCOc3ccccc32)C1=O)c1ccccc1 (stereo not drawn),10%,0.8%,-1,.,.,3,-28%
CCOC(=O)CN(C(=O)CNC(=O)c1ccco1)C(C(=O)NC1CCCCC1)c1cccnc1 (stereo not drawn),7%,.,6,9%,-0.2,8,-2%
CC(C)c1cc(C(=O)N2CCCC(Nc3ccc(F)c(F)c3)C2)nc(N)n1 (stereo not drawn),4%,-14%,6,10%,.,6,8%[15.4 µM]
COc1ccc(C(=O)COC(=O)CN2C(=O)C3CC=CCC3C2=O)c(OC)c1 (stereo not drawn),15%,-1.8%,4,.,.,.,-19%
Cc1ccc(N=C2NC(=O)/C(=C/c3cccs3)S2)cc1C,-30%,1.2%,3,-3%,.,11,?
CCOC(=O)c1c(-c2ccc(OC)cc2)csc1NC(=O)CCN1CCOCC1,-15%,.,-9,35µM*,-1.3,-14,22%
O=C(CC(c1ccc(F)cc1)c1ccco1)N1CCOCC1 (stereo not drawn),-3%,-1.7%,12,-21%,6.7,-8,-74%
Cc1nc(C(=O)N2CCC(n3nccc3NC(=O)Nc3ccccc3Cl)CC2)cs1,5%,-0.5%,13,8%,-0.3,6,?
CCCCC(C(=O)NC(=O)NCc1ccccc1)N1C(=O)c2ccccc2C1=O (stereo not drawn),-5%,-1.2%,-8,0%,-6.0,2,0%
COc1cc(NS(=O)(=O)c2cc3[nH]c(=O)c(=O)[nH]c3cc2C)cc(OC)c1OC,10%,-1.1%,14,-10%,-4.7,-9,22%
Cc1ccc(C(OC(=O)c2ccco2)C(=O)NCc2cccs2)cc1 (stereo not drawn),8%,-3.9%,-6,-4%,-1.4,-11,6%
Cc1ccc(-c2cc(C(=O)OCC(=O)N(C)c3c(N)n(Cc4ccccc4)c(=O)[nH]c3=O)c3ccccc3n2)o1,-15%,-0.5%,3,.,.,-1,11%[15.4 µM]

# Among those listed so far, these contain an aryl thioether with sulfur outside any ring:
SMILES,gsp antagonist,ClpP mod,TRPML1 blocker,Sfp PPTase inh,Menin MLL FP FL,TRPV1 potentiator,gsp ag
Cc1ccc(-c2csc3nc(CSc4nnc(-c5ccc(Cl)cc5)n4C)[nH]c(=O)c23)cc1,4%,0.5%,32,14%,2.7,-19,14%
CN(C(=O)CSc1nnc(Cc2ccccc2F)n1N)C1CCS(=O)(=O)C1 (stereo not drawn),6%,-0.3%,-7,17%,2.0,0,15%

# (cont.)
SMILES,gsp antagonist,ClpP mod,TRPML1 blocker,Sfp PPTase inh,Menin MLL FP FL,TRPV1 potentiator,gsp ag
CCOc1ccc(N(CC(=O)NCc2ccccc2Cl)S(=O)(=O)c2c(C)noc2C)cc1,-2%,-3.0%,17,11%,.,5,12%
Cc1ccc(S(=O)(=O)N2CCCC(NC(=O)N3CCN(c4ccccc4)CC3)C2)cc1 (stereo not drawn),-1%,-2.5%,-11,7%,3.8,-8,-8%
COc1ccc(-n2cnnc2SCC(=O)NCc2cccs2)cc1,-9%,-1.6%,11,17%,3.8,7,?
S=C(NNc1ccnc2cc(Cl)ccc12)Nc1ccc(Cl)cc1Cl,-22%,-0.7%,-11,20µM*,7.4,-10,33%
CCOC(=O)c1cccc(NC(=O)CSc2nc3ccccc3c(=O)n2CCOC)c1,6%,36%,10,?,2.3,28,10%
O=C(Nc1ccc(O)cc1)c1cc(S(=O)(=O)N2CCCC2)ccc1Cl,8%,-1.9%,8,15%,4.2,-3,-56%[inhibitor]
Cc1nn(CC(=O)O)c(C)c1[N+](=O)[O-],0%,.,3,15%,7.3,-2,-35%[15.4 µM]
C=CCSc1nnc2c(n1)OC=Nc1ccc(Br)cc1-2,-9%,-0.5%,7,-6%,-1.5,?,13%
CC(C)(C)n1nnnc1CN1CCSCC1,6%,-2.4%,34,6%,8.4,-8,-9%
CCSc1nnc(NC(=O)CSc2nnc(CNC(=O)c3ccc(OC)cc3)o2)s1,3%,-3.2%,-9,-20%,8.2,4,28%
CC(=O)C1CCC2C3CCC4CC(=O)CCC4(C)C3C(C)(O)CC12C (stereo not drawn),-3%,.,-1,.,.,.,6%
